From PubChem BioAssay
Six1-Eya2 blk: inhibitors of human Six1/Eya2 interaction; Q15475+O00167; AlphaScreen GST-Six1/His-Eya2 binding, biochemical; active compounds read low; control for the full effect not named in the record; activity change, % (test concentration not listed); 360,000 compounds, 0.56% hits; AID 651725; in the data active = activity change below about -65%; inconclusive = about -30% to -65%; inactive = above about -30%; further: on the % scale 0 is the no-effect control and ±100 the full control effect
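GST-Six1 + His-Eya2 (5X stock: 250/500 nM); Tris pH 8.0, 300 mM NaCl, 0.05% BSA, 0.02% Tween 20; GSH donor/Ni acceptor beads; 1 h 37 °C dark; AlphaScreen readout.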
PINK1 modulator: changes PINK1 expression. 410,000 compounds, 0.2% hits. Potency, µM (series often up to 76.6 µM), without a hit: at the highest dose activation (PINK1 increase), most hits filed as activators. PINK1 immunofluorescence, high-content cytometry, 24 h; active = well fitted activation curve with a large enough effect; inconclusive = small, poorly fitted or top-dose-only effect; inactive = flat fitted curve, though single readings scatter; cell line not stated here;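 further: potency means the concentration at half of the fitted maximal effect; % of control where 0% means no effect; nearly all actives have a fitted effect of over 65% in size; a mitochondrial uncoupler was the plate control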
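Decision-based qHTS: stable cells, 24 h exposure to five compound concentrations, CCCP as control. Fixed cells stained for PINK1 plus nuclear, mitochondrial and cell markers, cytometer read.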
D2 agonist: human D2 receptor agonism in beta-arrestin assay | 360,000 compounds, 0.084% hits | activation, % (concentration not given with the values) | P14416 | DiscoveRx PathHunter D2 beta-arrestin, luminescence, 90 min; 100% = 57 uM dopamine signal; in the data active = activation above about 40%; inconclusive = about 15% to 40%; inactive = below about 15%; further: the text of the record calls up to 30% inactive
Target sequence (P14416 whole entry, looked up): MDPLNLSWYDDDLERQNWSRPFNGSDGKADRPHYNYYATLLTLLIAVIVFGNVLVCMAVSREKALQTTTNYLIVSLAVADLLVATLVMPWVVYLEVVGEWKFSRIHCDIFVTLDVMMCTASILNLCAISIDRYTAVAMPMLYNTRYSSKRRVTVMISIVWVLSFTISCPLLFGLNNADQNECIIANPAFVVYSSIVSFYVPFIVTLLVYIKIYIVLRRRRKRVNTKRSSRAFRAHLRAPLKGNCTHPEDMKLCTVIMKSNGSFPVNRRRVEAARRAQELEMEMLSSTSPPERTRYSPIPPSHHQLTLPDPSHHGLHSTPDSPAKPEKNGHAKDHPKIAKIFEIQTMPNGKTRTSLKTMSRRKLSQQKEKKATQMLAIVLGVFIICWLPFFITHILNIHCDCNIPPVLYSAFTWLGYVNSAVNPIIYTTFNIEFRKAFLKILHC
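Agonist mode: compounds alone added to overnight-plated D2 PathHunter cells for 90 min at 37 C, with 57 uM final dopamine (EC100) defining full response. Beta-arrestin recruitment detected by chemiluminescent reagent, read after 1 h at ambient temperature.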
CtBP-E1A blk: CtBP/E1A binding inhibition | AlphaScreen GST-E1A/His-CtBP binding, 1536-well; active compounds read low; control for the full effect not named in the record | activity change, % (test concentration not listed) | 340,000 compounds, 0.49% hits | AID 651724; in the data active means activity change below about -65%; inconclusive means about -30% to -65%; inactive means above about -30%; further: on the % scale 0 is the no-effect control and ±100 the full control effect
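AlphaScreen with 125 nM GST-E1A and 125 nM His-CtBP (5X stocks) in Tris pH 8.0, 300 mM NaCl, BSA, Tween 20, TCEP. Compounds preincubated 2 h at 37 deg C, then glutathione donor/nickel acceptor beads added for 1 h at 37 deg C in dark.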
TRPML1 ag: human mucolipin-1 channel agonism | 410,000 compounds, 0.12% hits | activation, % (test concentration not listed) | AID 624414 | TRPML1-expressing cells, Ca2+ dye fluorescence, FDSS; host cell line not named in the record; reference of the full effect not given here | Q9GZU1; in the data active = activation above about 50%; inconclusive = about 30% to 50%; inactive = below about 30%; further: 0% is about no effect; the text of the record puts the active cut at 80%
Target sequence (Q9GZU1 whole entry, looked up): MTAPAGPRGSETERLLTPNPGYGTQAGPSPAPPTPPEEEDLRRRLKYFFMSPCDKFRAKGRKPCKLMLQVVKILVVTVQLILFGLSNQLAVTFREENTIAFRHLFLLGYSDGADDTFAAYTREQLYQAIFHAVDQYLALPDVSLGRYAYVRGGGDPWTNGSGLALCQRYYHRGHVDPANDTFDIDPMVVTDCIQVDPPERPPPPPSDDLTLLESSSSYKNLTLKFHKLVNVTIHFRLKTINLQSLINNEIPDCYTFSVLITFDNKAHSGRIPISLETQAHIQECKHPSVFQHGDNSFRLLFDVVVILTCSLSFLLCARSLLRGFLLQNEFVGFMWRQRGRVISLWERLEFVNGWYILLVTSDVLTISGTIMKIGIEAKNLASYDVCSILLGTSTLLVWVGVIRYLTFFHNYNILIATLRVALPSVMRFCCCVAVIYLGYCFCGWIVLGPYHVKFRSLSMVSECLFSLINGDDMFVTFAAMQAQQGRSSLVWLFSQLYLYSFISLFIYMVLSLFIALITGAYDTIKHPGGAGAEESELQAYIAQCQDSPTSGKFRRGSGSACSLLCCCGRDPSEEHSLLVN
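Kinetic FDSS Ca2+ read in Tet-induced TRPML1-DL cells (ABD Ca8 dye plus quencher, 45-90 min RT loading): baseline, then compound, then 110 s agonist window; EC80 agonist 54-4 at 4uM final added afterwards for a 110 s antagonist window.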
TRPML1 blocker: inhibitors of human TRPML1 channel | TRPML1-inducible cells, Ca2+ dye fluorescence, FDSS; active compounds read low; inhibition of EC80 agonist-evoked calcium signal | activity change, negative = inhibition, % (concentration not given with the values) | 390,000 compounds, 0.02% hits | AID 624415; in the data active means activity change below about -50%; inconclusive means about -30% to -50%; inactive means above about -30%;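 further: stimulus is agonist 54-4 at its EC80 concentration; on the % scale 0 is the no-effect control and ±100 the full control effect; the text of the record puts the active cut at -80%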
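Calcium fluorescence in TRPML1-DL cells induced overnight with Tet: a 110 s read after compound pin addition, then a 110 s antagonist read after challenge with 54-4 at 4 uM final (EC80).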
Starred values were filed as active, the others as inactive; u = inconclusive; x = no result given; [ ] = remark or other dose. Not all compounds are listed. The share of hits here may be higher or lower than overall.

Each structure is followed by: Six1-Eya2 blk, PINK1 modulator, D2 agonist, CtBP-E1A blk, TRPML1 ag, TRPML1 blocker
COC(=O)C1=C(c2ccc(OC)c(OC)c2)C[C@@H]2CC[C@H]1N2C(=O)NCCOc1ccccc1
 : 5, 0.6%, -2.4, 0, -0.3, -11
Cc1c(C)c2ccc(OCC(=O)N3CCC(C(=O)O)(c4ccccc4)CC3)cc2oc1=O
 : u, 0.0%, 1.5, -22, x, x
C/C(CCc1c[nH]c2ccccc12)=N\O
 : -2, -0.4%[38.3 µM], -2.1, -1, 1.4, -7
CNP(=O)(Oc1ccccc1)OC12CC3CC(CC(C3)C1)C2 (stereo not drawn)
 : 5, 0.5%, -0.8, -8, 0.1, -10
Cc1nc2ccccc2c(=O)n1-c1ccc(Cl)cc1[N+](=O)[O-]
 : -6, -0.1%, 7.8, 9, 2.2, 41
COc1ccc(C2c3c(nc(C)[nH]c3=O)Oc3c2c(=O)oc2ccccc32)cc1 (stereo not drawn)
 : -7, 0.1%, -4.1, -9, 1.1, 20
CN1C(=O)C(Cc2ccsc2)C(=O)N(C)C1=O
 : 3, 0.0%, -2.2, -1, -0.1, -5
NC(=O)c1ccc(NC(=O)c2cccn(Cc3ccccc3)c2=O)cc1
 : x, 0.8%, x, x, -0.4, -10
COc1cccc(Oc2c(C)oc3cc(OC(=O)N(C)C)ccc3c2=O)c1
 : -7, -4.7%[38.3 µM], -0.7, -13, 0.4, -5
CC[C@H](OC(C)=O)C(C[C@H](C)N(C)C)(c1ccccc1)c1ccccc1
 : -2, 2.9%, 3.2, -10, -0.3, 6
COc1ccccc1-n1c(O)c(C=NCCCn2ccnc2)c(=O)[nH]c1=O
 : 0, 2.5%, -1.4, 0, 0.9, 4
CC(C)Oc1cccc(NC(=O)c2cccn(Cc3ccc4c(c3)OC(F)(F)O4)c2=O)c1
 : -1, 6.5%, -3.5, 5, 0.9, 3
Cc1ccccc1CCNCc1ccc(Br)cc1
 : 0, u, 2.5, 15, -0.6, 16
O=[N+]([O-])c1cccc(O)c1
 : 3, 1.0%, -3.0, 0, -0.3, -7
CN(Cc1cccc(-c2cccnc2)c1)C(=O)Oc1ccc([N+](=O)[O-])cc1
 : -7, -1.4%, x, -5, -1.0, x
C=C1N2CCC(CC2)C1(O)c1ccc(C)c(C)c1 (stereo not drawn)
 : 4, -1.8%, -4.1, 3, 0.5, -15
COC(=O)C1=C(c2cccc(OCc3ccccc3)c2)C[C@@H]2CC[C@H]1N2C(=O)NCc1ccc(C(F)(F)F)cc1
 : -7, 1.6%, -5.1, 0, -0.1, 12
CC(C)[C@H](NC(=O)N1C[C@H]2C[C@@H](C1)c1cccc(=O)n1C2)C(=O)Nc1ccccc1F
 : 0, 1.3%, -1.5, 6, x, x
Clc1cnc(Oc2ccc(Oc3ncc(Cl)cc3Cl)cc2)c(Cl)c1
 : 5, 2.9%[38.3 µM], -2.2, 9, -0.2, -14
O=C1NC(=O)C2(CCCc3ccc(N(CCCl)CCCl)cc32)N1 (stereo not drawn)
 : 10, -1.3%, 0.1, -1, -0.1, 6
CC(=O)OC1CC[C@@]2(C)C(=CC(=O)C3C4CCC(OC(C)=O)[C@@]4(C)CCC32)C1 (stereo partly drawn)
 : 2, 1.2%, -4.9, -1, -0.4, 15
COc1ccc(C(=O)C2CCCN(Cc3cnc(C)s3)C2)cc1OC (stereo not drawn)
 : -3, 4.1%, -5.4, 0, -0.8, 8
COC(=O)C1=C(c2cccc(C#N)c2)C[C@@H]2CC[C@H]1N2C(=O)NCCO
 : 4, 0.3%, -2.0, 6, -0.3, 1
CN1C(=O)C(=Cc2ccc(N3CCCCC3)o2)C(=O)N(C)C1=S
 : 12, 19%, -1.8, -5, 12, 23
O=C1Nc2cc(C(=O)N3CCC4(CC3)OCCO4)ccc2S/C1=C\c1ccccc1
 : -1, 0.4%, -7.5, -3, 0.9, 22
COc1ccccc1C1=NCc2nnc(C)n2-c2ccc(Cl)cc21
 : -1, 0.0%, -7.8, 5, -0.1, 10
CN(Cc1cccc(-c2ccncc2)c1)C(=O)Oc1ccc([N+](=O)[O-])cc1
 : -8, -1.2%, x, -4, -1.1, x
CCN(CC)CCCN=Cc1c(O)n(Cc2ccc(F)cc2)c(=O)[nH]c1=O
 : 4, -2.4%, -0.9, 10, -0.6, 4
C=C(C)c1cccc(C(C)(C)NC(=O)NC2CN3CCC2CC3)c1 (stereo not drawn)
 : 6, -0.3%, -2.7, -2, 1.1, -5
O=C1CN(O)C(c2ccccc2)=c2cc(Cl)ccc2=N1
 : 11, 2.9%, 4.8, -2, 0.1, -8

Just CtBP-E1A blk (two entries from above):
Compound	CtBP-E1A blk
CCN(CC)CCCN=Cc1c(O)n(Cc2ccc(F)cc2)c(=O)[nH]c1=O	10
C=C(C)c1cccc(C(C)(C)NC(=O)NC2CN3CCC2CC3)c1 (stereo not drawn)	-2

The list continues.
Each structure is followed by: Six1-Eya2 blk, PINK1 modulator, D2 agonist, CtBP-E1A blk, TRPML1 ag, TRPML1 blocker
CC1=C(C/C(C)=C/c2ccccc2)/C(=C/CO)[C@@H]2OC(=O)O[C@]2(C)C12CC2
 : 3, 12%, 3.8, x, -0.4, 20
CCC(=O)N1CC(=O)Nc2ccc(Cl)cc2C1c1ccc(F)cc1 (stereo not drawn)
 : 1, 5.1%, -1.0, 2, -0.2, 3
COC(=O)C1C2c3ccccc3OC1(C)N=c1s/c(=C/c3cnn(C)c3C)c(=O)n12 (stereo not drawn)
 : 6, -0.7%, -1.8, -1, -0.1, 2
CCn1nc(-c2ccccc2)nc2c(=O)n(C)c(=O)nc1-2
 : -27, -2.3%, 7.6, -26, 3.3, -1
Cc1ccc(/C=C2/C(=O)NC(=O)N(CCc3ccc(F)cc3)C2=O)o1
 : -5, 6.9%, -3.7, 6, -0.5, 11
Cc1ccc(S(=O)(=O)N(C)C)cc1NC(=O)C(C)[N+]12CCN(CC1)CC2 (stereo not drawn)
 : 6, -1.6%, -3.8, x, 1.3, -6
COC1CCC(OC2CC(C3(C)CCC4(CC(O)C(C)C(C(C)/C=C(\C)C(=O)C(C)CC(C)C(=O)O)O4)O3)OC3(OC(C4OC(O)(CO)C(C)CC4C)CC3C)C2C)OC1C (stereo not drawn)
 : 3, -1.4%, 14, 0, 0.5, 11
C[C@]12CC(=O)CC1CCC1C2CC[C@@]2(C)C1CC[C@@H]2O (stereo partly drawn)
 : -5, -0.8%, -2.4, -13, -0.1, -11
Cc1ccc(OCC(=O)N2CCN(C)CC2)c(Br)c1
 : 5, 4.4%, 0.3, 10, 0.1, -13
COc1ccc(NC(=O)CN2C(=O)C(C)N=C(c3ccccc3F)c3cc(Cl)ccc32)c(OC)c1 (stereo not drawn)
 : x, -0.9%, x, x, 1.5, 0
O=C(Cc1ccccc1)OCCNC(=O)c1cccnc1
 : 7, 0.9%[38.3 µM], -1.8, 5, 0.1, 7
COc1ccc(OC(=O)N(C)C[C@H]2OCc3cnnn3CCCC(=O)N([C@@H](C)CO)C[C@H]2C)cc1
 : 9, 1.0%, -1.7, -4, -0.2, 1
Cc1cc(N2CCOCC2)nc2ccc(NC(=O)CCC(=O)N3CCC4(CC3)OCCO4)cc12
 : -3, 1.5%, -2.6, -13, -0.4, 9
Nc1cc2nc3ccccc3nc2cc1N
 : -10, 0.7%, 0.0, -5, 6.9, 12
Cc1cc(NC(=O)CCl)on1
 : 6, 12%, -3.3, 2, -0.2, 16
Cc1ccc(OCC(=O)N2CCN(Cc3cccnc3)CC2)cc1
 : 1, -0.7%, -2.1, 6, 0.1, -8
CCN1CCN(C(=O)COc2ccc(S(=O)(=O)N3CCOCC3)cc2Cl)CC1
 : 5, 6.8%, -6.2, 0, -0.9, -4
O=P(CCl)(Nc1ccccc1)C(Cl)(Cl)Cl (stereo not drawn)
 : 11, 4.7%, 1.3, -4, 0.8, 2
CC(=O)N1CCN(CCN=Cc2c(O)n(-c3ccc(F)cc3)c(=S)[nH]c2=O)CC1
 : 6, -1.8%, -2.5, 6, 0.2, 32
Cc1ccc(-c2nc3ccccc3c(=O)n2-c2ccccn2)cc1
 : 1, 0.6%, -1.1, -1, 0.3, 10
Cc1ccc(Cl)cc1N1CCN(CCN)CC1
 : -18, 12%, -1.3, -9, 0.0, 0
O=C(NCC(c1cccnc1)N1CCN(c2ccc(F)cc2)CC1)Oc1ccccc1 (stereo not drawn)
 : -5, 0.5%[38.3 µM], -0.9, 10, 0.4, 9
O=C(COc1ccc(S(=O)(=O)N2CCCCC2)cc1)N1CCN(Cc2ccccc2)CC1
 : -2, -1.2%, 0.6, 2, -0.4, -6
C=CCN1C(=O)C2(C(C(=O)OCC)=C(N)Oc3c2c(=O)oc2ccccc32)c2ccccc21 (stereo not drawn)
 : 3, 3.5%, -3.0, 10, -0.4, -8
N[C@@H](Cc1c[nH]c2ccccc12)c1nnc(SCc2c(F)cccc2Cl)o1
 : -11, -2.0%[38.3 µM], -3.3, -11, 0.8, 3
CC(C)CC(C)N (stereo not drawn)
 : 10, 0.6%, 4.2, 6, -0.4, -12
CC1CN2c3ccc([N+](=O)[O-])cc3CC3(C(=O)N(C)C(=O)N(C)C3=O)C2C(C)O1 (stereo not drawn)
 : 4, 2.0%, -4.8, 4, -0.1, -11
C=C1[C@H]2CC[C@H]3[C@]4(C)C[C@H](O[C@H]5O[C@H](CO)[C@@H](OS(=O)(=O)O)[C@H](OS(=O)(=O)O)[C@H]5OC(=O)CC(C)C)C[C@@H](C(=O)O)[C@H]4CC[C@]3(C2)[C@H]1O
 : 0, -0.2%, 1.7, 5, 0.5, 3
C(=NN1CCCCCC1)c1c[nH]c2ccccc12
 : 0, -0.2%, 0.5, 2, -0.6, -6
O=C1CC(c2ccc(F)cc2)c2c(c3ccccc3oc2=O)O1 (stereo not drawn)
 : x, 0.5%, x, x, 0.7, -24
COC(=O)C1=C(c2c(C)noc2C)C[C@@H]2CC[C@H]1N2C(=O)N1CCC(O)CC1
 : 2, -0.9%, -0.8, 10, -0.4, 4
CC(=O)NCCc1c[nH]c2ccccc12
 : 4, 1.0%, -4.4, 8, x, x
O=C(COc1ccc(Cl)cc1)N1CCN(C2CCCC2)CC1
 : -2, -1.6%, -2.8, 8, -0.3, 18
CCOP1(=S)Oc2cc3c(cc2C(C(=O)OC)(C(F)(F)F)O1)OCO3 (stereo not drawn)
 : 4, 15%[38.3 µM], -0.4, 0, 1.0, -3
O=C(Nc1ccccc1)c1c(O)[nH]c(=O)[nH]c1=O
 : 4, 0.6%, -1.5, x, 0.1, -14
COC(=O)C1=C(c2cccc(C#N)c2)C[C@@H]2CC[C@H]1N2C(=O)N1CCCC1
 : 3, 0.7%, -1.8, 17, 0.8, 1
CCc1ccc(OCC(=O)N2CCN(CCc3ccncc3)CC2)cc1
 : x, 0.3%, x, x, 0.3, -9
CN(C)CCN=Cc1c(O)n(-c2cccc3ccccc23)c(=O)[nH]c1=O
 : -4, 0.9%, -3.9, -12, -0.5, -22
Cc1cccc(NC(=O)Cn2cc(C(=O)c3ccccc3)c3ccccc32)c1
 : x, 4.7%, x, x, 3.1, -18
CNCCc1c[nH]c2ccccc12
 : 1, 2.5%, 4.5, -6, -0.7, 5
